Arbovirus anti – blocks arbovirus infection; arbovirus infection cell-based antiviral screen; inhibition, % at 10 µM; 200,000 tested, 0.37% active; AID 1251;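 active = inhibition from about 30%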;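 note: bluetongue infection of BSR cells; cell survival read as ATP light after 72 h; 0% = infected wells without compound and 100% = uninfected wells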
RecA splice inh – inhibitors of M. tuberculosis RecA intein splicing; P9WHJ3; cell-free RecA intein splicing, fluorescence; inhibition, %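 (about 9 µM by stock and volumes)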; 290,000 tested, 0.75% active; in the data active = inhibition above about 30%;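 note: 0% = vehicle wells and 100% = reference inhibitor control wells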
Target sequence (P9WHJ3 whole entry, looked up, canonical isoform): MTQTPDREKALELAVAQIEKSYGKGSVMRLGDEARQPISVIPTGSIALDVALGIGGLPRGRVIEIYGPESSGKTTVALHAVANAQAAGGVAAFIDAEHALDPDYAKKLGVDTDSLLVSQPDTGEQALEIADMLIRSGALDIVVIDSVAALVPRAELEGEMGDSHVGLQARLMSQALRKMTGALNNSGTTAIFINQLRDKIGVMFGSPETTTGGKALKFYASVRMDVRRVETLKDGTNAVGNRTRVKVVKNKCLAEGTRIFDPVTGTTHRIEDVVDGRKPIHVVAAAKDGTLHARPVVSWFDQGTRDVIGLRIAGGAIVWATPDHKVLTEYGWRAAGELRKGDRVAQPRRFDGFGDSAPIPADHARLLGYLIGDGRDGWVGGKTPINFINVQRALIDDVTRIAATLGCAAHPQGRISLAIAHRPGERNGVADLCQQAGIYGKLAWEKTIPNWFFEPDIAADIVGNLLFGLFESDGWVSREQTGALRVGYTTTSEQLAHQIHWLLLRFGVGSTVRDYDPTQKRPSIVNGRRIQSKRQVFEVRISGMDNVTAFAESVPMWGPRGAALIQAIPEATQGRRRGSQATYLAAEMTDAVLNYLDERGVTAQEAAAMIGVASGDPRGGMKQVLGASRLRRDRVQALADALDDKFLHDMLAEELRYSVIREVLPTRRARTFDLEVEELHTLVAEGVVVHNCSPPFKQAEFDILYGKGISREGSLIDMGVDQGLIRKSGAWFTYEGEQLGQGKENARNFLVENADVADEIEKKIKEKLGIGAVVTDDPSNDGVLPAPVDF
Mtb H37Rv – M. tuberculosis H37Rv growth inhibitors, H37Rv strain (AID 1626). 220,000 tested, 0.95% active. one-dose inhibition, % at 10 µM; IC50 in µM for titrated hits. M. tuberculosis H37Rv growth inhibition; higher % means a stronger effect;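 active = confirmed in a dose series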;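 note: bacteria incubated seven days before Alamar blue readout; 0% = bacteria only wells and 100% = bacteria with antibiotic wells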
YopH inh – YopH (Yersinia) phosphatase inhibition. fluorescence Ex485/Em525. inhibition, %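 (about 10 µM by stock and volumes)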. 140,000 tested, 0.16% active;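 active = inhibition of 50% or more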;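 note: controls were vehicle for no effect and minimum signal wells for full effect; inactives centre near -20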
Mtb betalactam – beta-lactam sensitization of Mtb H37Rv; M. tuberculosis H37Rv growth with meropenem, percent inhibition; hits of this screen are not shown here; 330,000 tested, 0.27% active; inhibition, % at 25 µM; AID 434955;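 active = about 74% or more and at least 40 points above the plate without the antibiotic, then above 30% in a dose series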;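 note: growth measured after seven days incubation then overnight dye step; 0% = bacteria only wells and 100% = bacteria with antibiotic; twin plates without the antibiotic show which effects depend on it; some results filed as inactive read as strong as hits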
Arbovirus anti repeat – second read-out of Arbovirus anti, no call of its own (marks repeat the call); inhibition, %; measured here: 10K subset replicate screen; many hits read low in the repeat;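 first of two repeat runs on a subset; 0% = infected and 100% = uninfected wells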
The depositor's hits bear a star; nt = not tested or not shown. Only part of the results is shown; the hit share may differ from the screen's.

SMILES | Arbovirus anti | RecA splice inh | Mtb H37Rv | YopH inh | Mtb betalactam | others
CCO[C@@H]1OC(C(=O)NCc2nc3ccccc3[nH]2)=C[C@H](C2CC2)[C@H]1CCCO | -11 | 1.7 | 0% | nt | 5
Cc1ccc(/C=N/Nc2nc(C)cc(C)n2)cc1 | nt | -2.5 | -4% | nt | 4
N#Cc1ccccc1NC(=O)CN1CC=C(c2ccccc2)CC1 | 3 | -2.4 | 7% | nt | -4
O=C(COC(=O)c1ccc(F)c(S(=O)(=O)N2CCOCC2)c1)NCCc1ccccc1 | nt | -0.1 | nt | nt | -9
Cc1nn(-c2ccccc2)c(NC(=O)c2ccccc2)c1Br | nt | 0.4 | nt | nt | 2
CCOC(=O)CSc1ncc(-c2cccc(Cl)c2)cn1 | -1 | 1.5 | 1.3µM* | 0 | 100
CC(C)CN(C(=O)c1ccco1)C1CCS(=O)(=O)C1 (centres undefined) | nt | 2.5 | nt | nt | -1
Cc1ccc(S(=O)(=O)NCCC(=O)NC(C)CCc2ccccc2)cc1 (centres undefined) | nt | 1.9 | nt | nt | -3
O=C(Nc1ccc(Cl)cc1Cl)c1csc(-c2cccnc2)n1 | nt | -0.2 | 5% | nt | 67
CC(C)(C)c1ccc(C(=O)NC2CCN(Cc3ccccc3)CC2)cc1 | nt | -2.3 | nt | nt | 0
C=CCOC(=O)C1=C[C@@H](c2coc3ccccc3c2=O)C[C@@H](OCc2ccc(CO)cc2)O1 | 3 | 4.7 | -6% | nt | -8
C=CCOc1c(Br)cc(C2NC(=O)NC(C)=C2C(C)=O)cc1OCC (centres undefined) | 12 | 4.8 | 5% | -9 | -5
CC(c1ccco1)N(C(=O)c1ccccc1NS(=O)(=O)c1ccc(Cl)cc1)c1ccccn1 (centres undefined) | -2 | 8.5 | 4% | -9 | 5
COC(=O)NCC1(C)CC(NC(=O)OC)CC(C)(C)C1 (centres undefined) | 1 | -1.2 | -8% | -22 | -1
COc1cc(OC)c2c(c1)C(=O)OC2OC (centres undefined) | nt | -0.3 | -6% | nt | 6
Cc1ccc(NCc2ccncc2)c(Br)c1 | 3 | -0.5 | -4% | nt | -7
Cn1cccc1C(=O)OCC(=O)Nc1ccc2c(c1)OCO2 | 0 | -0.8 | 2% | nt | -13
COCc1cc(=O)n2[nH]c(C(C)(C)C)cc2n1 | nt | -1.2 | 3% | nt | 0
COCCN(C(=O)CCc1nnc(Cc2c[nH]c3ccccc23)o1)C(C)C | nt | -2.9 | nt | nt | 5
O=C(c1ccncc1)N1CCN(C(=O)c2ccncc2)CC1 | 1 | 1.0 | -9% | 21 | -7
Cc1cccc2nc(CSc3nc4ccc([N+](=O)[O-])cc4[nH]3)cn12 | 0 | 1.9 | 7% | -38 | 2
CCCCC(=O)Nc1ncc2c(n1)CC(C)(C)CC2=O | -7 | -0.2 | 3% | -44 | -7 | Arbovirus anti repeat=-2
Cc1nnc(SCc2ccccc2C#N)n1-c1ccccc1 | 9 | 0.1 | 25% | -24 | -10
CC(OC(=O)CNC(=O)c1ccc2c(c1)OCO2)C(=O)NCCC1=CCCCC1 (centres undefined) | 5 | nt | -5% | -7 | -19
Cc1ccccc1N1C(=O)[C@@H]2Cc3ccccc3CN2C1=O | -3 | 0.2 | -2% | -31 | -4
CN(CC(=O)Nc1nc2ccccc2s1)S(=O)(=O)c1ccc(Cl)cc1 | 4 | -3.6 | -3% | -23 | 16
CC1CCC(NC(=O)COc2ccc(C(=O)c3ccccc3)cc2)CC1 (centres undefined) | 14 | -2.2 | 8% | -35 | 0
COc1ccccc1CC1(C)NC(=O)N(CC(=O)N2CC(C)OC(C)C2)C1=O (centres undefined) | 4 | nt | -2% | -16 | -6 | Arbovirus anti repeat=4
Cc1nc2cccc(C)n2c(=O)c1Cl | -1 | 0.6 | -2% | 11 | -1
COc1ccc(/C=C(/NC(=O)c2ccc(C)cc2)C(=O)NCC2CCCO2)cc1 (centres undefined) | 7 | -0.6 | 2% | nt | -1
COC(=O)Cc1[nH]nc2c1C1(CCSCC1)C(C#N)=C(N)O2 | -3 | 66* | -11% | 3 | 4
O=C(NC1CCCCCCC1)c1cc(-c2ccccn2)nc2ccccc12 | 4 | -4.2 | -5% | nt | 5
Cc1ccc(-c2nn(CC(=O)N(C)C)c(=O)c3ccccc23)cc1S(=O)(=O)N(C)C | 2 | -0.9 | -7% | -15 | 2
COC(=O)c1ccc(NC(=O)CCS(=O)(=O)c2ccc(Br)cc2)cc1 | 1 | -1.2 | -1% | nt | 2
COc1ccc(S(=O)(=O)N2CC(C)N(S(=O)(=O)c3ccc(OC)cc3)CC2C)cc1 (centres undefined) | 5 | -1.9 | -13% | nt | -9 | Arbovirus anti repeat=-3
CC(C)Cc1ccc(C(C)C(=O)N2CCOCC2)cc1 (centres undefined) | 8 | 1.8 | 3% | -30 | -3
CC(C(=O)NCC1CCCO1)n1cccc1C(=O)c1ccccc1 (centres undefined) | -2 | -6.8 | -14% | -45 | 1
CC1CCCN(C(=O)/C(=C/c2ccco2)NC(=O)c2ccccc2)C1 (centres undefined) | nt | 0.3 | nt | nt | 1
Cc1ccc(/C=C/S(=O)(=O)NCC(=O)OCC(=O)Nc2ccc(C(N)=O)cc2)cc1 | nt | -0.3 | nt | nt | -12
Cc1nc(Cl)sc1C(=O)Nc1ccc(Cl)cc1 | 3 | -2.2 | 8% | -6 | 0

By substructure: the entries above with a tert-butyl group.
SMILES | Arbovirus anti | RecA splice inh | Mtb H37Rv | YopH inh | Mtb betalactam | others
CC(C)(C)c1ccc(C(=O)NC2CCN(Cc3ccccc3)CC2)cc1 | nt | -2.3 | nt | nt | 0
COCc1cc(=O)n2[nH]c(C(C)(C)C)cc2n1 | nt | -1.2 | 3% | nt | 0

(next part)
SMILES | Arbovirus anti | RecA splice inh | Mtb H37Rv | YopH inh | Mtb betalactam | others
COc1cc(Cl)c(C)cc1NC(=O)CCCn1c(=O)oc2ccccc21 | -3 | 2.8 | 3% | 0 | 6
CCO/C(C)=N/n1c2nc3ccccc3nc2c2c(=O)n(Cc3ccccc3Cl)c(C)nc21 | -1 | 0.0 | 1% | -43 | 90
COc1cc(OC)cc(-c2cc3nc(C)c(CCC(=O)O)c(C)n3n2)c1 | 4 | nt | -3% | -37 | 6 | Arbovirus anti repeat=-2
CC(=O)Nc1ccc(S(=O)(=O)N(C)CC(=O)NC2=NCCS2)cc1 | 9 | 1.1 | 1% | -40 | -1
CCCCN1C(=O)/C(=C2/C=CC=CN2C)SC1=S | -1 | 0.0 | 4% | 16 | 7
COc1ccc(CNc2ccc3c(c2)ncn3-c2ccccc2OC)cc1 | 1 | nt | 2% | -176 | 96
N#Cc1nc(-c2cccs2)oc1NCc1ccco1 | 8 | 1.1 | 12% | 9 | 3
CCOC(=O)C1CCCN(Cc2c(Cl)cccc2Cl)C1 (centres undefined) | 2 | 1.5 | -7% | 7 | -3
C=CCN(CC=C)CC(O)Cn1c2ccccc2c2ccccc21 (centres undefined) | 7 | -0.7 | 28% | -13 | 8
CCOc1ccc(C(CC(=O)O)NC(=O)C(Sc2ccccc2)c2ccccc2)cc1 (centres undefined) | 4 | 0.4 | -6% | nt | -4

Overlap with the part before: 2 compounds, followed by the next part.
SMILES | Arbovirus anti | RecA splice inh | Mtb H37Rv | YopH inh | Mtb betalactam | others
C=CCN(CC=C)CC(O)Cn1c2ccccc2c2ccccc21 (centres undefined) | 7 | -0.7 | 28% | -13 | 8
CCOc1ccc(C(CC(=O)O)NC(=O)C(Sc2ccccc2)c2ccccc2)cc1 (centres undefined) | 4 | 0.4 | -6% | nt | -4
C/C=C/C(=O)Nc1ccc(N2CCN(c3ccc(C(F)(F)F)cn3)CC2)nc1 | nt | 1.4 | -7% | nt | -4
COC(=O)c1ccccc1NC(=O)COC(=O)c1cccnc1 | 0 | -0.1 | -11% | -15 | 2
O=C(NCc1ccc(Cl)cc1)c1noc2c1CCCCC2 | 1 | 0.8 | 4% | -15 | -4
COC(=O)c1ccc(/C=N/NC(=S)NC(C)C)cc1 | nt | 0.0 | 6% | nt | -4
COc1ccc(Oc2coc3cc(OC(=O)N4CCOCC4)ccc3c2=O)cc1 | 3 | -0.5 | 4% | -20 | 3
CCOc1ccc(CCNC(=O)C2=C(C)C(=O)OC23CCC(C)CC3)cc1 (centres undefined) | 3 | -0.6 | 6% | -28 | -11
COc1ccc(C(CNc2ncnc3sccc23)N(C)C)cc1OC (centres undefined) | nt | -4.1 | nt | nt | -3
COC(=O)c1cc(Br)ccc1OC(=O)c1cccnc1 | 1 | 12 | -7% | -36 | 8
O=C(COC(=O)c1nc(Cl)ccc1Cl)NNC(=O)c1ccccc1 | nt | 2.1 | nt | nt | -10
CCOc1ccccc1C(=O)OCC(=O)NCC1CCCCC1 | nt | 1.6 | nt | nt | 1

Arranged by formula weight (descending): five of the compounds above
SMILES | Arbovirus anti | RecA splice inh | Mtb H37Rv | YopH inh | Mtb betalactam | others
COc1ccc(Oc2coc3cc(OC(=O)N4CCOCC4)ccc3c2=O)cc1 | 3 | -0.5 | 4% | -20 | 3
COc1ccc(C(CNc2ncnc3sccc23)N(C)C)cc1OC (centres undefined) | nt | -4.1 | nt | nt | -3
COC(=O)c1cc(Br)ccc1OC(=O)c1cccnc1 | 1 | 12 | -7% | -36 | 8
CCOc1ccccc1C(=O)OCC(=O)NCC1CCCCC1 | nt | 1.6 | nt | nt | 1
COC(=O)c1ccccc1NC(=O)COC(=O)c1cccnc1 | 0 | -0.1 | -11% | -15 | 2

Other entries follow:
SMILES | Arbovirus anti | RecA splice inh | Mtb H37Rv | YopH inh | Mtb betalactam | others
CC(OC(=O)CCc1nc2ccccc2c(=O)[nH]1)C(=O)Nc1ncc(Cl)cc1Cl (centres undefined) | 1 | -0.6 | -4% | nt | -14
O=C(Nc1ccc(N2CCN(C(=O)c3cccs3)CC2)cc1)c1cccnc1 | -3 | -4.7 | -4% | nt | 1
COC(=O)c1ccc(C(NC(=O)OCc2ccccc2)/C(F)=C/[C@@H](C)C(=O)NCc2ccc(-c3ccccc3)cc2)cc1 (some centres undefined) | -12 | nt | -8% | -32 | 1
CCOC(=O)C1=C(c2ccccc2)OC(N)=C(C#N)C1c1ccncc1 (centres undefined) | -1 | -1.5 | -9% | nt | 1
COc1ccc(-c2noc(CCC(=O)Nc3cc(OC)ccc3OC)n2)cc1 | -7 | 2.5 | 3% | 0 | 60
CCOc1ccc(NC(=O)CN(C)C(=O)CSCc2c(C)noc2C)cc1OCC | nt | 1.6 | nt | nt | -4
CC1CCN(C(=O)COC(=O)c2cc([N+](=O)[O-])ccc2N2CCOCC2)CC1 | nt | -1.0 | nt | nt | 0
COc1ccc(N(CC(=O)NCc2ccccc2Cl)S(=O)(=O)c2c(C)n[nH]c2C)cc1 | nt | -0.1 | nt | nt | -4
O=C(COC(=O)C1CCN(c2ccc(C(F)(F)F)cn2)CC1)Nc1ccc(Cl)cn1 | nt | 0.4 | nt | nt | 97
OCC[C@@H]1C[C@H](O)[C@@H](O)[C@@]2(CCc3ccccc3CO2)O1 | nt | 1.9 | nt | nt | -7
CCC(C)NC(=O)c1cc2c(=O)n3cccc(C)c3nc2s1 (centres undefined) | nt | -44 | nt | nt | 5
CCc1cc(C(c2ccccn2)N2CCN(C)CC2)c(NC(=O)c2ccccc2)s1 (centres undefined) | 28 | 2.5 | nt | -22 | 39
CN1C(N)=NC(=O)/C1=C\c1ccc(Br)cc1 | nt | 4.1 | nt | nt | -2
COc1cc2ccccc2cc1C(=O)Nc1sc2c(c1C(N)=O)CCN(C(C)C)C2 | nt | -3.3 | nt | nt | 97
COc1ccccc1NC(=O)N1CCN(c2ccc3nnc(-c4ccc(F)cc4)n3n2)CC1 | nt | -0.4 | 8% | nt | 47
CCOc1ccc(N2C(=O)CC(N3CCN(C4CCc5ccccc5C4)CC3)C2=O)cc1 (centres undefined) | 13 | -1.9 | -4% | -23 | -3 | Arbovirus anti repeat=1
CC(C)OC(=O)c1ccc(NC(=O)c2ccco2)cc1 | 1 | -5.0 | 1% | 14 | 48
CN(C)/C=C(\C=O)c1onc(-c2ccccc2Cl)c1C#N | 8 | 0.8 | 7% | nt | -4
CCC(=O)Nc1ccc(C=C(C(C)=O)C(C)=O)cc1 | nt | -0.3 | 2% | nt | 0
Cc1ccc(C(=O)C2CCN(CC(=O)Nc3nc(C)cs3)CC2)cc1 | 3 | -1.4 | 6% | -29 | 93

4 records drawn at random from those above, as already listed:
SMILES | Arbovirus anti | RecA splice inh | Mtb H37Rv | YopH inh | Mtb betalactam | others
Cc1ccc(C(=O)C2CCN(CC(=O)Nc3nc(C)cs3)CC2)cc1 | 3 | -1.4 | 6% | -29 | 93
CCOc1ccc(N2C(=O)CC(N3CCN(C4CCc5ccccc5C4)CC3)C2=O)cc1 (centres undefined) | 13 | -1.9 | -4% | -23 | -3 | Arbovirus anti repeat=1
CC(C)OC(=O)c1ccc(NC(=O)c2ccco2)cc1 | 1 | -5.0 | 1% | 14 | 48
CCc1cc(C(c2ccccn2)N2CCN(C)CC2)c(NC(=O)c2ccccc2)s1 (centres undefined) | 28 | 2.5 | nt | -22 | 39
